Six1-Eya2 inh: inhibitors of human Six1/Eya2 interaction. Q15475+O00167. AlphaScreen GST-Six1/His-Eya2 binding, biochemical; active compounds read low; control for the full effect not named in the record. activity change, % (no concentration beside the values). actives 0.56% (n = 360,000); in the data active = activity change below about -65%; inconclusive = about -30% to -65%; inactive = above about -30%; note: % is set by controls: 0 for no effect and ±100 for the full control effect
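Six1/Eya2 binding was read as AlphaScreen signal after compounds were pinned into GST-Six1 plus His-tagged Eya2 (5X stock 250/500 nM) in pH 8.0 Tris/NaCl/TCEP buffer, beads added, then incubated 1 h, 37 C, dark.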
CtBP-E1A inh: inhibitors of CtBP/E1A interaction; AlphaScreen GST-E1A/His-CtBP binding, 1536-well; active compounds read low; control for the full effect not named in the record; activity change, % (concentration not given with the values); actives 0.49% (n = 340,000); in the data active means activity change below about -65%; inconclusive means about -30% to -65%; inactive means above about -30%; note: % is set by controls: 0 for no effect and ±100 for the full control effect
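In 5 uL wells, 23 nL compound meets equimolar GST-E1A and His-CtBP (5X stock 125 nM each) for 2 h, 37 °C. Beads (5X, 50 ug/mL) then 1 h, 37 °C, dark.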
PINK1 expr mod: modulators of PINK1 expression; PINK1 immunofluorescence, high-content cytometry, 24 h; Potency, µM (titrated, usually from 76.6 µM), inactives show top-dose activation (PINK1 increase), usual class: activators; actives 0.2% (n = 410,000); active = well fitted activation curve with a large enough effect; inconclusive = small, poorly fitted or top-dose-only effect; inactive = flat fitted curve, though single readings scatter; cell line not stated here;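 note: potency is the fitted concentration of half-maximal effect; % of control where 0% means no effect; nearly all actives have a fitted effect of over 65% in size; a mitochondrial uncoupler was the plate control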
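Readout is PINK1 immunofluorescence, quantified alongside mitochondrial, cell and nuclear markers by laser-scanning microplate cytometry. Cells from a stable line were exposed to compound titrations (5 concentrations) for 24 hours, with CCCP controls.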
TRPML1 ag: agonists of human TRPML1 channel | Q9GZU1 | TRPML1-expressing cells, Ca2+ dye fluorescence, FDSS; host cell line not named in the record; reference of the full effect not given here | activation, % (no concentration beside the values) | actives 0.12% (n = 410,000); in the data active = activation above about 50%; inconclusive = about 30% to 50%; inactive = below about 30%; note: 0% is about no effect; the text of the record puts the active cut at 80%
Target sequence (Q9GZU1 whole entry, looked up): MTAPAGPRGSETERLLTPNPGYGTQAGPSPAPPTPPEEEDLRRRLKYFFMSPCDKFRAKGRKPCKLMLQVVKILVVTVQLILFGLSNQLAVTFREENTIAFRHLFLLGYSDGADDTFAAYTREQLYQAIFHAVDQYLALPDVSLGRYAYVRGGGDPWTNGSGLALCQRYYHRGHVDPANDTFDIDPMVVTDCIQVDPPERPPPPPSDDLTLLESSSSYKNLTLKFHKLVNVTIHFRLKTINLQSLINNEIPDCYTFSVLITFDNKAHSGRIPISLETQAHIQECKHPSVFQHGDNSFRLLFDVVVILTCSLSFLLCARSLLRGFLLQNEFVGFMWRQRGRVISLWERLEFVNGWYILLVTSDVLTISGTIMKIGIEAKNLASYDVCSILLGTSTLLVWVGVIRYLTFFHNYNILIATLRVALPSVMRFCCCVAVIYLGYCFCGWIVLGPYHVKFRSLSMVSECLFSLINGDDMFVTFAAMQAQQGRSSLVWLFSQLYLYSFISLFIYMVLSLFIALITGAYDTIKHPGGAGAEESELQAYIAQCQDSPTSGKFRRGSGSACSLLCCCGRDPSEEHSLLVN
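Tet-induced TRPML1-DL cells, 1,500 per well, cultured overnight, were loaded with a no-wash Ca2+ dye for 45–90 min. Calcium fluorescence was recorded on the FDSS for 110 s after compound addition, before the EC80 agonist (4 uM 54-4) was added.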
TRPML1 inh: blocks the human TRPML1 channel | TRPML1-inducible cells, Ca2+ dye fluorescence, FDSS; active compounds read low; inhibition of EC80 agonist-evoked calcium signal | actives 0.02% (n = 390,000) | Q9GZU1 | activity change, negative = inhibition, % (no concentration beside the values); in the data active means activity change below about -50%; inconclusive means about -30% to -50%; inactive means above about -30%;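 note: stimulus is agonist 54-4 at its EC80 concentration; % is set by controls: 0 for no effect and ±100 for the full control effect; compound concentration not given in the record; the text of the record puts the active cut at -80%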
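Calcium fluorescence in TRPML1-DL cells induced overnight with Tet: a 110 s read after compound pin addition, then a 110 s antagonist read after challenge with 54-4 at 4 uM final (EC80).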
D2 ag: agonists of human D2 dopamine receptor (beta-arrestin) | DiscoveRx PathHunter D2 beta-arrestin, luminescence, 90 min; 100% = 57 uM dopamine signal | P14416 | actives 0.084% (n = 360,000) | activation, % (test concentration not listed); in the data active = activation above about 40%; inconclusive = about 15% to 40%; inactive = below about 15%; note: compound concentration not given in the record; the text of the record calls up to 30% inactive
Target sequence (P14416 whole entry, looked up): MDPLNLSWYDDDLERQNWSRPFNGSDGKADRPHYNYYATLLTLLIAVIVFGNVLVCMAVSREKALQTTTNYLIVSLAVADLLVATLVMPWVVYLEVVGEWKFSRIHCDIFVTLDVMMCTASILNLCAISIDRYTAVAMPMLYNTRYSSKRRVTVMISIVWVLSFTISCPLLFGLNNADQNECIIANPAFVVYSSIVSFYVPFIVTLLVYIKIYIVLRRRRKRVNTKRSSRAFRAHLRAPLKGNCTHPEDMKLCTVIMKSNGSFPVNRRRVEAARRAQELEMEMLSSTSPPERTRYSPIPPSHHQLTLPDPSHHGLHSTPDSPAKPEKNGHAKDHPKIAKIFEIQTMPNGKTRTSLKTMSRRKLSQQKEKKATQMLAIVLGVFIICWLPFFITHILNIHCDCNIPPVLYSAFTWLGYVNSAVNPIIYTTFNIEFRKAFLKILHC
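DiscoveRx PathHunter D2 beta-arrestin cells (2,100/well) attached overnight, then compound-stimulated 90 min at 37 C in HBSS/10 mM HEPES/0.1% Tween-20 buffer; beta-galactosidase complementation read by luminescence after 1 h at ambient temperature. Dopamine 57 uM final (EC100) as control.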
An asterisk follows results filed as active; u = inconclusive; x = no result given; & = joins results of further samples; [ ] = remark or other dose.

Molecule,CtBP-E1A inh,D2 ag,TRPML1 ag,TRPML1 inh,Six1-Eya2 inh,PINK1 expr mod
CCOc1ccc(-n2c(C)nc3cc(C(=O)NCCC4=CCCCC4)ccc32)cc1,x,x,-0.1,4.5,x,1.1%
NS(=O)(=O)c1ccc(CNS(=O)(=O)Cc2ccc(Cl)cc2)cc1,9.7,1.5,-0.2,-9.7,0.4,0.6%
Cc1ccc(-n2ccc(=O)c(C(=O)Nc3ccc(S(=O)(=O)N4CCOCC4)cc3)n2)cc1,3.6,-4.1,-0.6,10.2,0.2,2.9%
O=C(O)c1ccc(NS(=O)(=O)c2cccc3nsnc23)cc1,9.1,0.2,0.1,19.1,5.3,-4.2%[38.3 µM]
COc1cccc(N2CCN(C(=O)CN3CCSc4ccccc43)CC2)c1,x,x,3.6,8.5,x,0.2%
CCOC(=O)c1c(-c2ccc(OC)c(OC)c2)csc1NC(=O)c1ccc(F)cc1,x,x,0.2,-2.5,x,1.5%
COC(=O)c1ccccc1NC(=O)C(C)c1ccc([N+](=O)[O-])cc1 (stereo not drawn),-0.8,4.1,6.2,13.5,-6.3,-1.4%
CCc1ccc([C@@H]2CC=C(C(=O)O)CN2S(=O)(=O)c2ccc(C)cc2)cc1,2.5,0.3,-0.5,-1.2,6.1,-0.7%
CCOc1ccccc1NC(=O)CCC(=O)Nc1nnc(C2CCCCC2)s1,8.9,-2.4,-0.6,-8.4,5.1,9.4%
CC(C)OCCCN1C(=O)c2[nH]nc(-c3ccccc3O)c2C1c1cccc(Cl)c1 (stereo not drawn),1.1,0.2,1.4,36.8,-6.5,0.2%
COc1ccc(OC)c(C2C/C(=N/O)C(C)C(c3cc(OC)ccc3OC)N2)c1 (stereo not drawn),0.0,-0.9,0.1,1.7,-2.0,-0.2%
C/C=C/C(=O)Nc1cccc(C2=NOC3(C2)C[C@@H](C(N)=O)N(C(=O)c2cc([N+](=O)[O-])cc([N+](=O)[O-])c2)C3)c1 (stereo partly drawn),0.9,9.3,-0.5,-2.8,-0.5,0.5%
COc1cc(NC(=O)c2cccc([N+](=O)[O-])c2)ccc1NC(=O)c1ccco1,-8.7,-0.3,1.4,16.7,-7.5,3.0%
CCc1nnc(NC(=O)C2CCCN(C(=O)c3ccc(Cl)cc3)C2)s1 (stereo not drawn),x,-1.7,-1.1,-11.2,1.7,5.4%
COc1cccc(CNc2ccc(N3CCCCC3)cc2)c1OC,u,3.0,-1.0,9.4,-66.5*,6.2%
Cc1cccnc1NC(=O)Nc1cccc(Cl)c1,-24.5,0.4,-0.2,4.8,17.5,1.4%
O=[N+]([O-])c1cccc(S(=O)(=O)N2CCCC2)c1,1.0,-1.2,0.6,-2.3,-5.5,2.6%
COc1ccc(Cn2c(C(=O)O)c(CNCc3ccccc3F)c3ccc(OC)cc32)cc1,x,x,-0.6,7.1,x,-0.5%
COC(=O)c1ccc(COc2cccc3c2CCN(Cc2ccccc2)C3=O)o1,-5.9,0.6,1.9,-8.7,-18.0,-1.1%
Nc1nonc1-n1nnc(C(=O)N/N=C/c2ccccn2)c1CNc1ccccc1,x,2.4,0.1,-14.1,u,4.1%
O=C(O)CNC(=O)C(Cc1ccccc1)NC(=O)OCc1ccccc1 (stereo not drawn),-4.7,0.1,-0.5,-5.8,0.8,-0.3%
OCCNCc1cc(Br)ccc1OCc1ccccc1Cl,1.5,1.6,-0.2,17.6,0.8,-1.5%
CC(C)CC(COCc1ccc(Cl)cc1)N1CCN(C(=O)c2ccc(C(F)(F)F)cc2)CCC1=O (stereo not drawn),1.0,2.0,-0.8,40.9,3.4,u
CCCCn1c(SCC(=O)OCC)nc2c(sc(=S)n2-c2ccccc2OC)c1=O,-4.5,-1.3,0.9,27.8,-16.3,2.2%
COC(=O)C(CCSC)NC(=O)c1cn(-c2ccc(OC)cc2)c(=O)c2ccccc12 (stereo not drawn),-7.1,-1.5,0.4,-3.1,-0.4,-1.0%
CCOC(=O)Cc1csc(NC(=O)c2sc3nc4cc(C)ccc4cc3c2N)n1,7.5,0.4,10.7,4.5,13.2,u
C[C@H](CO)N1C[C@H](C)[C@@H](CN(C)Cc2ccccc2)Oc2c(NS(=O)(=O)c3ccccc3)cccc2C1=O,4.9,-0.5,0.1,24.6,3.3,0.6%
Cc1cccc(Cc2cnc(NC(=O)c3ccc(C)o3)s2)c1,-7.2,-0.1,-0.7,-6.9,-10.5,2.1%
CCn1c(N2CCN(C(c3ccccc3)c3ccccc3)CC2)nc2c1c(=O)[nH]c(=O)n2C,x,-1.0,-0.1,-16.4,-2.5,1.1%
CCC(C)NC(=O)C1c2ccccc2C(=O)N1Cc1ccc(F)cc1 (stereo not drawn),2.6,0.2,-0.1,14.8,7.7,-1.4%
COc1ccc2c(CCNC(N)=S)c[nH]c2c1,-0.8,7.4,0.0,-5.2,-0.9,0.9%
CC(=O)N1CCc2cc(S(=O)(=O)CCC(=O)Nc3c(C)n(C)n(-c4ccccc4)c3=O)ccc21,-1.9,-0.5,0.4,11.4,0.1,1.3%
CCOC(=O)CSc1nc(-c2ccc(C)cc2C)cc(-c2ccccc2)c1C#N,x,x,0.1,3.6,x,1.1%
Cc1ccc(-c2nnc(SCc3ccccc3)o2)cc1,x,x,1.6,12.3,x,0.4%
C=CCn1c(-c2cccc(Cl)c2)n[nH]c1=S,7.1,-0.9,0.7,-0.7,-2.0,0.4%
CN1C(=O)c2ccccc2Sc2ccc(NC(=O)NCc3ccccc3Br)cc21,x,x,4.6,-6.0,x,3.0%
COc1ccc(C2CC(c3ccccc3OC(=O)/C=C/c3ccccc3)=NN2C(C)=O)cc1 (stereo not drawn),x,1.5,1.0,12.3,-5.1,1.1%
CCN(CC)CCNC(=O)/C(=C/c1cn(C)c2ccccc12)NC(=O)c1ccc(OC)c(OC)c1,-1.0,-4.1,1.5,-3.7,18.4,-1.1%
Cc1ccc(NC(=O)CSc2ncn[nH]2)cc1S(=O)(=O)N1CCOCC1,0.0,-1.3,0.3,-10.2,-6.5,-1.1%
Cc1ccccc1NC(=O)c1cccc(N2C(=O)C3CCCCC3C2=O)c1 (stereo not drawn),5.3,1.7,1.2,-4.4,22.2,0.8%
Cc1cc(C(=O)NC(=S)Nc2ccccc2N2CCOCC2)ccc1[N+](=O)[O-],-6.6,-3.0,0.7,20.2,u,2.0%
CCCCCSc1ncnc2c1sc1nc(N3CCOCC3)c3c(c12)CCCC3,x,x,1.6,-2.0,x,6.2%
CCC(CC)N1CCN(C(=O)c2cc(OC)c(OC)c(OC)c2)CC1,-1.6,3.3,0.1,-3.9,4.0,0.8%
CCN(CC)c1ccc(N/C(N)=N/c2nc(C(F)(F)F)cc(=O)[nH]2)cc1,4.3,2.8,1.7,-1.6,2.0,-1.4%
CS(=O)(=NS(=O)(=O)c1ccc(Cl)cc1)c1ccccc1 (stereo not drawn),x,-0.5,1.1,-4.6,1.6,6.1%
O=C(NCC1CC1)c1ccc(-n2ccnc2)c2ccoc12,-4.4,-8.3,0.1,x,-15.5,-0.3%
CC(=O)Nc1ccc(NC(=O)C2CCCN2S(=O)(=O)c2cccc3nsnc23)cc1 (stereo not drawn),2.3,-3.4,1.1,4.9,2.5,-1.2%
CCOc1ccccc1Nc1ncnc2ccccc12,12.7,-2.8,-1.5,-4.3,-9.3,-0.8%
COc1ccc(CCNC(=O)CC(NS(=O)(=O)c2ccc(NC(C)=O)cc2)C(C)C)cc1OC (stereo not drawn),0.0,-1.1,-0.5,-0.4,0.0,-3.1%
CC(NC(=O)c1cc(S(=O)(=O)N2CCOCC2)ccc1N1CCCC1)c1ccc(Cl)c(Cl)c1 (stereo not drawn),1.8,1.0,1.1,-8.5,-8.6,-0.4%
CC(C)N1CC2=C(C1=O)C(c1ccc(O)cc1)NC(=O)N2C (stereo not drawn),-2.3,-0.7,0.0,22.7,2.3,1.0%
CCC1CCCCN1C(=O)Cn1c(C(=O)OC)cc2sc(Cl)cc21 (stereo not drawn),23.1,-2.1,5.8,15.7,1.9,1.9%[38.3 µM]
O=C(CSc1nncs1)Nc1ccc(N2CCCCC2)cc1,-3.5,-0.2,4.9,1.8,-7.4,1.5%
COc1cc(C=NNc2ccccc2[N+](=O)[O-])cc(OC)c1OC,-16.1,-3.3,-0.9,-6.1,-4.8,1.8%
CO/N=C/c1ccc(N2CCN(C(=O)c3ccc(F)cc3)CC2)c([N+](=O)[O-])c1,-27.2,2.3,3.6,-1.5,-18.1,4.8%[38.3 µM]
CC1(C)CC(NC(=O)c2ccc(Cl)c(Cl)c2)CC(C)(C)N1,-6.3,-4.1,0.9,6.3,1.7,3.4%
CCOc1ccc(OCC)c(NC(=O)CSc2nnc(C3CC3)n2CC)c1,0.0,1.1,0.2,18.7,-10.0,2.0%
O=C(N[C@@H](Cc1ccccc1)C(=O)OCc1ccccc1)c1nc[nH]c1C(=O)N1CCc2ccccc2C1,-20.2,3.2,2.5,3.8,-11.6,-0.4%
Cc1ccc(C)c(NC(=S)NC23CN4CN(CN(C4)C2)C3)c1,16.8,-3.0,-0.3,-16.3,0.9,0.1%
CNC(=O)c1c(NC(=O)/C=C/c2ccccc2Cl)sc2c1CCC2,x,x,1.6,69.6,x,22.0%
CCN1CCN(CCCNC(=O)CN2C(=O)c3cccnc3Oc3ccc(Cl)cc32)CC1,-11.2,-2.8,0.1,39.2,4.3,-1.0%
Cc1cccc(N2CCN(S(=O)(=O)c3c(C)nc4scc(C)n4c3=O)CC2)c1C,-15.2,5.3,1.0&1.9,-16.6&27.4,-9.2,0.6%&0.0%

One compound at a time (already shown). Screens in order: CtBP-E1A inh	D2 ag	TRPML1 ag	TRPML1 inh	Six1-Eya2 inh	PINK1 expr mod
`CCOC(=O)CSc1nc(-c2ccc(C)cc2C)cc(-c2ccccc2)c1C#N` is listed with x	x	0.1	3.6	x	1.1%
`Cc1ccc(C)c(NC(=S)NC23CN4CN(CN(C4)C2)C3)c1` is listed with 16.8	-3.0	-0.3	-16.3	0.9	0.1%

Rows are unselected; any-hit rate near 1%.
